gsp antagonist: gsp mutant antagonism. gsp-mutant cells, cAMP HTRF, 30 min; control for the full effect not named in the record. Potency, µM (series often up to 76.9 µM), for the others: at the top dose activity change, negative = inhibition, usual class: inhibitors. AID 624288. actives 0.4% (n = 340,000); active = falling curve of any shape with a large fitted effect; inconclusive = falling curve, mostly with a smaller effect; inactive = flat or rising curve; cell line not stated here;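 further: intracellular cAMP measured with PDE inhibitor Ro 20-1724 present during compound exposure; potency means the concentration at half of the fitted maximal effect; on the % scale 0 is the no-effect control and ±100 the full control effect; nearly all actives have a fitted effect of over 65% in size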
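HTRF cAMP read-out (cAMP-d2 plus anti-cAMP antibody-K in lysis buffer, 30 min RT). Before lysis, cells are exposed to compounds with […] for 30 min at 37C in DPBS containing Ca/Mg, BSA and Tween 20.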
D2 ag: activates the human D2 dopamine receptor | P14416 | DiscoveRx PathHunter D2 beta-arrestin, luminescence, 90 min; 100% = 57 uM dopamine signal | activation, % (no concentration beside the values) | actives 0.084% (n = 360,000) | AID 624465; in the data active = activation above about 40%; inconclusive = about 15% to 40%; inactive = below about 15%; further: compound concentration not given in the record; the text of the record calls up to 30% inactive
Target sequence (P14416 whole entry, looked up): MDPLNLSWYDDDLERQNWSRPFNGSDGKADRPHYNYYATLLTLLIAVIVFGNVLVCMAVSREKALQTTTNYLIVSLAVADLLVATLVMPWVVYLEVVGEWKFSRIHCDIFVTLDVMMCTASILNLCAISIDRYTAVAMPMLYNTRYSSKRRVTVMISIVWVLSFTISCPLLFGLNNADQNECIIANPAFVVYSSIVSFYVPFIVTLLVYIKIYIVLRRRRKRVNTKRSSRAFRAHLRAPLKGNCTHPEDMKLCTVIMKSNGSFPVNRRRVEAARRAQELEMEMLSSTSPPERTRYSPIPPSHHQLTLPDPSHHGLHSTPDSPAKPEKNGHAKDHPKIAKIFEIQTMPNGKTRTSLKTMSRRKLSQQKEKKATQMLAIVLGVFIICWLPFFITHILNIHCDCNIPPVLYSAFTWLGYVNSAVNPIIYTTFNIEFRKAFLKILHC
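DiscoveRx PathHunter D2 beta-arrestin cells (2,100/well) attached overnight, then compound-stimulated 90 min at 37 C in HBSS/10 mM HEPES/0.1% Tween-20 buffer; beta-galactosidase complementation read by luminescence after 1 h at ambient temperature. Dopamine 57 uM final (EC100) as control.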
gsp ag: agonists of gsp mutant (McCune-Albright syndrome). gsp mutant cells, cAMP HTRF, 30 min; control for the full effect not named in the record. Potency, µM (titrated, usually from 76.9 µM), without a hit: top-dose activation (cAMP increase), hits mostly activators. AID 624287. actives 0.13% (n = 340,000); active = well fitted activation curve with a large enough effect; inconclusive = small, poorly fitted or top-dose-only effect, or another doubt; inactive = no such curve, though single readings can be large or run the other way; cell line not stated here;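 further: phosphodiesterase inhibitor Ro 20-1724 added with compounds to block cAMP breakdown; potency means the concentration at half of the fitted maximal effect; nearly all actives have a fitted effect of over 60% in size; about a fifth of the inactives were tested at one dose only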
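Cells stably selected in G418 were plated at 2000/well, grown 16-24 hr, then given compounds in DMSO with the PDE inhibitor […] (300 uM solution added) for 30 min at 37C; cAMP was read by HTRF.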
Menin MLL FP FL: displaces fluorescein MLL peptide from human menin | Fluorescence polarization, fluorescein-MLL peptide displacement from menin | FP activity change, % at 61.4 µM | 290,000 tested, under 10 active; inconclusive = falling polarisation curve, or a change in total fluorescence; inactive = total fluorescence flat and polarisation flat or rising; no compound was filed as active; the % refers to the polarisation; negative = inhibition;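 further: % of control where 0% means no effect; inhibitors lower the polarisation; unlabelled MLL peptide was the positive control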
Sfp PPTase inh: Sfp phosphopantetheinyl transferase inhibition; actives 3.5% (n = 310,000); Biochemical Sfp PPTase activity, qHTS; Q9F4F7; Potency, µM, for inactives: max response, negative = inhibition, usual class: inhibitors; AID 1490; active means well fitted inhibition curve with a large enough effect; inconclusive means small, poorly fitted or top-dose-only effect, or another doubt; inactive means no such curve, though single readings can be large or run the other way;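 further: the enzyme is Sfp with the accession as filed and its product quenches rhodamine fluorescence; potency means the concentration at half of the fitted maximal effect; 0% = enzyme reaction without inhibitor and -100% = no enzyme wells; top concentration of the series not given in the record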
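With Hepes-Na pH 7.6 buffer containing 10 mM MgCl2, Sfp (15 nM) modified BHQ-2-YbbR (12.5 uM) using rhodamine-CoA (5 uM). Two reads 30 minutes apart at 525/598 nm yielded each well's rate.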
PINK1 modulator: PINK1 expression modulation; PINK1 immunofluorescence, high-content cytometry, 24 h; Potency, µM (series often up to 76.6 µM), inactives show at the top dose activation (PINK1 increase), most hits filed as activators; actives 0.2% (n = 410,000); AID 624263; active = well fitted activation curve with a large enough effect; inconclusive = small, poorly fitted or top-dose-only effect; inactive = flat fitted curve, though single readings scatter; cell line not stated here;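 further: potency means the concentration at half of the fitted maximal effect; % of control where 0% means no effect; nearly all actives have a fitted effect of over 65% in size; a mitochondrial uncoupler was the plate control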
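PINK1 protein level read as immunofluorescence by microplate cytometer in a fixed, stained stable cell line after 24 h exposure to five compound concentrations, with CCCP as control.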
ClpP mod: qHTS Assay for Activators of ClpP; AID 651965, 2013; Potency, µM (titrated, usually from 57.5 µM), for inactives: at the top dose activity change, negative = active; actives 1.9% (n = 340,000); purified B. subtilis ClpP, FRET peptide cleavage, 20 min; ATP-dependent Clp protease proteolytic subunit (Bacillus subtilis (strain 168)), P80244; active = well fitted falling curve with a large enough effect; inconclusive = small, poorly fitted or top-dose-only effect; inactive = no such curve, though single readings can be large or run the other way; further: potency means the concentration at half of the fitted maximal effect; the source files actives as falling curves though it sought activators and does not explain the sign; nearly all actives have a fitted effect of over 65% in size; many hits overshoot -100%
Target sequence (P80244 whole entry, looked up): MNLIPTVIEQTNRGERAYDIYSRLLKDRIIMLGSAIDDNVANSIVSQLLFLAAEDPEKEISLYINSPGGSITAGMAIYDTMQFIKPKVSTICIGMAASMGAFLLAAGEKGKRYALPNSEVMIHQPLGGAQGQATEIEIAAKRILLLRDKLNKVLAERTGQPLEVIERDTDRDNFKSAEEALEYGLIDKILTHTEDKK
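ClpP 10 microg/mL final, pH 8 Tris/KCl buffer with BSA, glycerol, Tween-20; compound pinned in; FRET-FV substrate; RT 20 min; Ex320/Em430; ΔFRET vs ADEP 5.8 microM, DMSO, no enzyme.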
* hit, by the source's call; u = inconclusive; x = not tested or not shown; & = joins results of further samples; [ ] = remark or other dose.

SMILES	gsp antagonist	D2 ag	gsp ag	Menin MLL FP FL	Sfp PPTase inh	PINK1 modulator	ClpP mod
O=C(NNC(=S)NCC1CCCO1)c1cc(Br)ccc1Cl (configuration not stated)	0%	-18	9%	x	25%	-0.4%	0.6%
COc1ccc(CC(=O)n2[nH]c(=O)ccc2=O)cc1OC	1%	1.5	17%[15.4 µM]	5.2	3.5µM*	1.5%	x
CCc1cc(C(=O)OC)c(NC(=O)c2ccoc2C)s1	-18%	3.6	4%	x	-8%	2.2%	0.9%
CCCC(=O)Nc1nnc(-c2ccccc2)o1	13%	1.7	u	-6.6	-11%	1.2%	-21%
O=c1[nH]c(CN2CCN(c3ccc(O)cc3)CC2)nc2scc(-c3ccc(Cl)cc3)c12	6%	3.4	33%	8.3	7%	3.5%	1.2%
NNC(=O)c1ccc(COc2ccc3ccccc3c2)cc1	13%	0.1	-4%	15	-4%	1.2%	-3.7%
O=[N+]([O-])c1ccc2ncnc(N3CCN(Cc4ccc5c(c4)OCO5)CC3)c2c1	-22%	u	9%	1.8	0%	-0.1%	-1.6%
COC(=O)c1ccc2nc(C3CCCCC3)c(Cc3cccc(Cl)c3)n2c1	x	-8.9	x	x	x	13%	-23%
CN1CCN(c2c(F)cc3c(=O)c(C(=O)O)cn4c3c2OCN4C)CC1	-9%	-5.6	3%	-12&-18	3%&-7%	-0.2%	4.0%
COc1ccc(S(=O)(=O)N2CCCC(C(F)(F)F)C2)cc1 (configuration not stated)	-7%	-4.5	-31%[inhibitor]	-3.4	3%	0.0%	-0.3%
O=C(c1cnccn1)N(Cc1cccs1)C1(C(=O)NC2CCCC2)CCCCC1	-4%	-0.6	19%	3.4	8%	0.4%	-1.2%
CCOc1ccc(-n2c(SCC(=O)Nc3ccc4c(c3)OCCO4)nc3c(c2=O)SCC3)cc1	-6%	-0.9	-20%	-0.4	1%	-3.4%	-16%
COc1ccc(C(=O)Nc2ccc(N3CCOCC3)cc2)cc1S(=O)(=O)N1CCCC1	-2%	3.2	7%	x	x	1.3%	0.8%
CCCC(=O)OCC1CN(Cc2ccco2)S(=O)(=O)c2c(F)cccc2O1 (configuration not stated)	0%	-1.4	x	x	x	0.1%	0.2%
O=C(NNS(=O)(=O)c1ccc(Cl)cc1)c1sccc1-n1cccc1	4%	-4.0	-3%	9.1	5%	0.4%	1.2%
COc1ccc(CN2CCC(=O)N([C@H](CO)Cc3ccccc3)CC2)cc1	2%	-7.0	x	1.3	19%	-0.1%	-0.1%
CCCCOc1ccc(C(=O)OCC(=O)Nc2cc(C)on2)cc1	2%	-11	7%[15.4 µM]	-1.7	20%	-0.1%	x
CN(C)c1cc[n+](CC(=O)c2ccc(-c3ccccc3)cc2)cc1	10%	-4.2	53%	9.9	u	25µM*	-13%
O=C(O)c1ccccc1NN=Cc1ccccc1	25µM*	-2.8	28%	x	x	1.2%	x
CCN(c1ccccc1)S(=O)(=O)c1cccc(C(=O)NCc2ccccc2CN2CCOCC2)c1	u	-0.9	4%	x	x	0.6%	1.2%
CC(C)CC(=O)c1c[nH]c(C(=O)O)c1	-11%	2.7	7%[15.4 µM]	-0.5	6%	-0.6%	x
CCSc1cc(N2CCCC2)nc(-c2ccccc2Cl)n1	16%	-2.7	-10%[15.4 µM]	-1.0	-5%	4.7%	0.9%
COc1ccc(C(=O)NCCN2CCOCC2)cc1OC	5%	-1.4	10%	-0.5	-13%	-1.2%	-6.9%
Cn1c(=O)c2c(=O)cc(N)[nH]c2n(C)c1=O	11%	-5.6	14%	-0.4	-4%	1.9%	-1.6%
CCOC(=O)C(=CNc1ccc(C(F)(F)F)cc1Cl)C(=O)OCC	-23%	1.0	0%[15.4 µM]	8.0	1%	11%	x
Continuation:
SMILES	gsp antagonist	D2 ag	gsp ag	Menin MLL FP FL	Sfp PPTase inh	PINK1 modulator	ClpP mod
COc1cc2c(cc1NC(=O)CSc1ccccc1)oc1ccccc12	u	-2.0	17%	2.0	2%	-0.9%	-19%
Cc1cccnc1C(NC(=O)C1CCN(CCCc2ccccc2)CC1)c1ccc(Cl)cc1 (configuration not stated)	x	2.9	x	x	x	-0.5%	0.9%
Cc1nn(CC(=O)N2CCC(C)CC2)c(=O)c2nn(-c3ccccc3)c(C)c12	-13%	0.1	0%	3.4	1%	-0.3%	-5.0%
COC(=O)[C@H]1C[C@H](OC(=O)Nc2cccs2)[C@@]2(O)CN(S(=O)(=O)c3ccc(C)cc3)CC2[C@H]1C(=O)OC (some centres not stated)	x	-7.4	-82%[inhibitor]	x	x	2.9%	0.2%
CC(C)CNS(=O)(=O)c1ccc(CCC(=O)N2CCN(Cc3ccc4c(c3)OCO4)CC2)cc1	u	3.4	0%	-1.6	4%	-1.4%	-4.8%
COc1ccc(OCC(=O)Nc2ccc3c(c2)nc(CCN2CCCC2)n3C)cc1	1%	1.1	-24%	2.4	9%	0.3%	-6.2%
CC(=O)Nc1cc(NC(C)=O)cc(C(=O)N2CCCC3CCCCC32)c1 (configuration not stated)	11%	5.7	10%	1.7	5%	4.5%	x
Cc1ccc(-c2nc(C#N)c(N3CCCCC3)o2)cc1	-33%	-2.3	4%	1.7	8%	2.5%	5.0%
COc1cc(C(C(=O)NC2CCCCC2)N(Cc2ccco2)C(=O)c2cnccn2)cc(OC)c1OC (configuration not stated)	5%	-1.5	-14%[15.4 µM]	0.8	10%	1.7%	x
Cc1cccc(NS(=O)(=O)c2ccc(C)c(C(=O)NCCCN3CCOCC3)c2)c1	7%	1.7	-1%	x	x	3.7%	-3.2%
Cc1cc(NC(=O)CN2C(=O)/C(=C/c3ccc(C(C)C)cc3)SC2=S)no1	x	-0.6	-13%	x	x	u	-1.4%
CCCCN(C)C(=O)Cn1cnc2sc(C)cc2c1=O	4%	-3.9	6%	-0.3	0%	1.1%	-1.3%
Cc1nc(Nc2ccc(F)cc2)nc(Nc2ccc(F)cc2)c1[N+](=O)[O-]	-3%	-0.3	-2%[15.4 µM]	3.9	-14%	2.1%	x
O=[N+]([O-])c1cc(S(=O)(=O)Nc2ccccc2)ccc1Nc1ccccc1	-24%	0.0	-3%	x	x	25%	x
COc1ccc(Cc2nnc(Nc3ccccc3)s2)cc1Br	-3%	2.5	20%	-27	2%	3.1%	-0.5%
CCN1CCN(c2ccc(N=Cc3ccc(O)cc3O)cc2)CC1	-21%	3.3	-9%[15.4 µM]	u	-2%	-1.9%	-1.5%
CCN(CC)CCN1C(=O)C(O)=C(C(=O)c2ccco2)C1c1ccccn1 (configuration not stated)	13%	-2.2	4%	-5.9	-25%	-2.1%	-9.1%
COc1cc2c(cc1OC)CN(C(=O)C1(c3ccccc3)CC1)CC2	-13%	-2.1	8%	0.1	0%	0.0%	-6.8%
O=C(Nc1ccc(F)cc1)c1ccc(CN2CCc3ccccc3C2)cc1	7%	-4.8	14%	2.3	13%	3.6%	0.7%
COCCNC(=O)C(c1ccc(C)cc1)N(Cc1ccco1)C(=O)CCC(=O)Nc1ccccn1 (configuration not stated)	-6%	1.4	-40%[15.4 µM]	5.0	8%	2.0%	x
CCc1ccc2[nH]c3nc(C)cc(C)c3c(=O)c2c1	17%	0.1	u	5.6	20%	4.4%	u
COCCn1c(C)cc(C(=O)COC(=O)/C=C/c2ccc(OC)cc2OC)c1C	-21%	4.9	2%	x	x	4.6%	x
Cc1ccnc(SCCn2c(N3CCN(C)CC3)nc3c2c(=O)n(C)c(=O)n3C)n1	3%	-0.2	18%	2.7	32%[activator]	-0.8%	1.3%
Cc1ccc(S(=O)(=O)NCc2cc(=O)n(C)c(=O)n2C)cc1C	18%	-1.6	2%	-2.3	16%	-0.7%	-0.5%
Cc1ccsc1CNC(=O)C1(C)CCN1C(=O)C(C)C (configuration not stated)	x	-1.9	x	x	x	1.0%	-0.1%
Next part:
SMILES	gsp antagonist	D2 ag	gsp ag	Menin MLL FP FL	Sfp PPTase inh	PINK1 modulator	ClpP mod
COc1ccc(CN(C)CC(=O)NC(C)c2ccccc2)c(OC)c1 (configuration not stated)	6%	-2.9	-10%[15.4 µM]	-4.7	-21%	-1.0%	-2.8%
COC(=O)c1cc(C#N)c(Oc2ccccc2)nc1C	-13%	0.2	u	x	x	-0.3%	-3.4%
CCCOc1ccc(N2C(=O)CC(NCCNc3ccc(S(=O)(=O)CC)cc3)C2=O)cc1 (configuration not stated)	0%	1.1	0%	0.1	8%	1.5%	0.8%
Cc1ccc(NC(=O)COC(=O)c2ccc([N+](=O)[O-])s2)c(C)c1	4%	-0.6	-1%	-2.6	13%	1.5%	1.1%
COc1ccc(Cl)c2sc(N(CCN(C)C)C(=O)CCS(=O)(=O)c3ccc(C)cc3)nc12	2%	-2.9	2%[15.4 µM]	x	x	0.2%	x
O=C1c2ccccc2NC2CCCCCN12 (configuration not stated)	12%	1.0	-4%	-1.1	7%	0.4%	13µM*
CCN(CC)CCNC(=O)c1ccc(NC(=O)c2cc(S(=O)(=O)N3CCCCC3)ccc2N2CCOCC2)cc1	-2%	-4.8	-1%	x	x	-1.1%	3.2%
CN(C)c1cccc(CNC(=O)c2ccc3sc([C@@H]4O[C@H](CO)[C@H](O)[C@H](O)[C@H]4O)nc3c2)c1	x	-12	x	x	x	0.3%	0.4%
O=C(O)C1C2C=CC(O2)C1C(=O)Nc1ccc(S(=O)(=O)Nc2ccccc2)cc1 (configuration not stated)	4%	-2.2	17%	1.2	-91%	2.2%[38.3 µM]	-0.8%
O=C(CCCCl)NC1=NN(c2ccccc2)C(=O)C1	-2%	-6.2	-13%	2.0	-23%	0.5%	0.9%
CCOc1ccc(NC(=O)NCc2cccn2C)cc1	8%	-2.7	-19%	10	2%	5.3%	x
O=C(NCCCN1CCCC1=O)Nc1ccc(Cl)cc1Cl	10%	-1.8	-27%	0.4	6%	0.5%	0.1%
C=CCn1c(=O)c2ccccc2n2nnc(C(=O)OCC)c12	-7%	4.3	2%[15.4 µM]	3.5	13%	-1.0%	-2.1%
CC1CSc2ccccc2NC1=S (configuration not stated)	16%	0.2	-10%	2.0	-11%	-0.3%	0.1%

From PubChem BioAssay
